Compound activity (PubChem)
Resorufin autofl: resorufin region autofluorescence; 59,000 tested, 0.04% active; max dye-equivalent concentration, M; Compound fluorescence, resorufin region 547/598 nm, buffer; stronger effect = higher value; active = above 10 nM dye equivalent; inconclusive = 1 to 10 nM; inactive = 1 nM or less; a few of its hits are not listed in these tables; note: highest value over a series up to 38 µM
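Read-out: intrinsic compound fluorescence at ex 547/em 598 nm after 15 min at RT in pH 8.0 Tris (100 mM). Values expressed as resorufin-equivalent concentration from per-plate standard series.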
A488 autofl: compound fluoresces in the A488 spectral region; max dye equivalency, M; 59,000 tested, 0.1% active; compound autofluorescence, A488 spectral region, dye equivalency; stronger effect = higher value; active = above 10 nM dye equivalent; inconclusive = 1 to 10 nM; inactive = 1 nM or less; about half of its hits are not listed in these tables;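 note: highest value over a series up to 38 µM; compound alone in buffer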
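Spectroscopic profiling in the A488 region: compounds in pH 8.0 Tris (100 mM), 15 min RT, CCD imaging with 480 nm excitation and 540 nm emission; responses normalized against A488 dye standards.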
A647 fluor: compound fluoresces in the A647 spectral region; AID 592; Compound fluorescence, A647 channel (570/671 nm), Tris buffer; max dye-equivalent concentration, M; 59,000 tested, under 10 active; active means above 1 µM dye equivalent; inconclusive means 0.1 to 1 µM; inactive means 0.1 µM or less;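 note: values scaled relative to a standard on each plate; highest value over a series up to 38 µM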
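Fluorescence read (570 nm ex, 671 nm em) after 15 min RT incubation of compounds in 100 mM Tris buffer, pH 8.0; values expressed as dye-equivalent concentration against a six-point A647 standard series on each plate.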
AID923: qHTS Assay for Allosteric/Competitive Inhibitors of Caspase-1: Spectroscopic Profiling in AFC Spectral Region; compound fluorescence, AFC spectral region (405/520 nm); almost no hit is shown here; Potency, µM (top dose mostly 57.5 µM), inactives show at the highest dose fluorescence increase, hits mostly activators; 75,000 tested, 1.1% active; active = well fitted activation curve with a large enough effect; inconclusive = small, poorly fitted or top-dose-only effect;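 note: potency is the fitted concentration of half-maximal effect; 0% is about no effect; scaled to a free AFC standard on each plate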
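Titrations up to 57 uM read every 20 sec for 3 min (405/520 nm) with 50 nM caspase 1 and 5 uM Ac-WEHD-AFC, pH 7.5 HEPES buffer. Fluorescence-vs-time intercept gave baseline, scaled against on-plate AFC standard.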
TSHR ag: agonists of human thyroid stimulating hormone receptor; P16473; HEK293-CNG-TSHR cells (CNG channel as cAMP sensor), membrane potential dye, cAMP; Potency, µM (series often up to 57.1 µM), for the others: at the highest dose activation, most hits filed as activators; 73,000 tested, 0.48% active; active = well fitted activation curve of enough size with the parental cells flat; inconclusive = any curve in the parental cells; inactive = parental cells flat and receptor cells flat or falling; note: potency is the fitted concentration of half-maximal effect; % of control where 0% means no effect; weak receptor curves with flat parental cells got no call and are not listed
Target sequence (P16473 whole entry, looked up): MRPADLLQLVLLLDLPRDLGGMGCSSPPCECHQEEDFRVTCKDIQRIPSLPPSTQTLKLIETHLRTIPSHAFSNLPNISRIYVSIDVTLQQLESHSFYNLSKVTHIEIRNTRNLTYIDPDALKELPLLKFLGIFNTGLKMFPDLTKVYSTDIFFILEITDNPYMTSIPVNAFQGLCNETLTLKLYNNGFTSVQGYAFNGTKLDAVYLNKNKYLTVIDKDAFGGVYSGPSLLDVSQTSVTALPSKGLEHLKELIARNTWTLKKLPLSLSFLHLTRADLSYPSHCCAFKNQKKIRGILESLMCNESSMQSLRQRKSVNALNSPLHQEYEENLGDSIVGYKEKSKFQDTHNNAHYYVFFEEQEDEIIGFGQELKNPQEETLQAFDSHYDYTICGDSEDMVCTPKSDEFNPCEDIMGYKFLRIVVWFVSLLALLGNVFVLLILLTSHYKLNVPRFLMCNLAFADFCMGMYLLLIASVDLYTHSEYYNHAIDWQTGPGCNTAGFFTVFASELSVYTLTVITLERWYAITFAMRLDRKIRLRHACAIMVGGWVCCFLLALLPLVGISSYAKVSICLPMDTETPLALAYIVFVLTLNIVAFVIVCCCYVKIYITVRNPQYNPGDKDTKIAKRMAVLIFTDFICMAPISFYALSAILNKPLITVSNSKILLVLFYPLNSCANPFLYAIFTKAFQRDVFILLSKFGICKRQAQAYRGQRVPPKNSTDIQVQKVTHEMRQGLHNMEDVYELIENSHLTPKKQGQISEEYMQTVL
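HEK 293 cells stably expressing TSHR and a cAMP-gated CNG channel; parental CNG-only cells as counterscreen. Cells preloaded 60 min with membrane potential dye plus 100 uM RO 20-1724, then compound 30 min; fluorescence read at 590 nm.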
* hit, by the source's call; i = inactive; ? = inconclusive; nt = no result given; & = joins results of further samples; [ ] = remark or other dose. These rows are one share of the data. The share of hits here may be higher or lower than overall.

SMILES	Resorufin autofl	A488 autofl	A647 fluor	AID923	TSHR ag
CCn1c(SCC(=O)C(C)(C)C)nnc1-c1cccnc1	i	i	9.1e-09	-2.7%	2%
COc1cccc(NC(=O)c2ccc(CN3CCN(c4ccccc4)CC3)cc2)c1	i	i	1.1e-09	0.8%	?
O=C(CCSc1nnc(-c2ccncc2)o1)Nc1ccc(Cl)cc1	i	i	3.6e-08	-0.2%	-3%
CCn1cc(C(=O)O)c(=O)c2cc(OC)ccc21	i	i	3.7e-08	-0.4%	?
CC1(c2ccc3c(c2)OCO3)NC(=O)N(CC(=O)NCCC2=CCCCC2)C1=O (centres undefined)	i	i	1.8e-08	-0.3%	nt
CC1=Nc2ccccc2N=C(NC(=O)CSc2nnnn2-c2ccccc2)C1c1ccccc1 (centres undefined)	i	i	5.6e-09	0.9%	nt
O=C(NCCCn1ccnc1)c1cn(Cc2ccc(F)cc2)nn1	i	i	3.6e-08	0.1%	1%
CCCCOc1cccc(C(=O)Nc2ccc(N3CCN(CC)CC3)cc2)c1	i	i	1.2e-08	0.8%	?
COc1ccc(C)c(Cn2c(-c3nonc3N)nc3ccccc32)c1	i	i	2.4e-09	-0.1%	?
O=S(=O)(c1ccccc1)N1CN2CN(C1)CN(S(=O)(=O)c1ccccc1)C2	i	i	1e-09	-2.5%[11.5 µM]	0%[11.4 µM]
CCc1c(C(=O)N2CCOCC2)csc1C	i	i	7e-09	-0.6%	0%
CC1=CC(=C2C(=O)c3ccccc3C2=O)C=C(C)N1Cc1ccco1	i	i	3.5e-09	2.5%	1%
CCC(=O)Nc1ccc(C(=O)c2ccccc2)cc1	nt	nt	nt	-1.1%	11%
CC(C)(C)NC(=O)C(c1ccco1)N(Cc1ccc(F)cc1)C(=O)c1snc(C(N)=O)c1N (centres undefined)	i	i	6e-08	1.1%	nt
COc1ccccc1-c1nn2c(-c3ccco3)nnc2s1	i	i	4e-09	nt	nt
COc1cccc(OC)c1NC(=O)Cc1nn(C)c(=O)c2ccccc12	i	i	3.6e-08	0.0%	14%
Cc1c(CNCc2cccs2)c(C(=O)O)c(C)n1Cc1ccccc1	i	i	1e-09	-1.1%	1%
c1ccc2[nH]c(CSc3nc4ccccc4o3)nc2c1	nt	nt	nt	1.1%	10%
CCCCCN(CCCCC)C(=O)[C@H](CCC(=O)O)NC(=O)c1ccc(Cl)c(Cl)c1	i	i	1e-09&1.3e-08	-0.6%[25.7 µM]	?
CO[C@H]1COC(=O)[C@H](C)NC(=O)[C@@H](C)COC(=O)[C@H]2CCCN2C(=O)C/C=C\[C@H]1C	nt	nt	nt	0.0%[11.5 µM]	-1%[11.4 µM]

An excerpt from above in order of their number in A647 fluor, lowest first:
Structure	Resorufin autofl	A647 fluor	AID923
Cc1c(CNCc2cccs2)c(C(=O)O)c(C)n1Cc1ccccc1	i	1e-09	-1.1%
CC1=CC(=C2C(=O)c3ccccc3C2=O)C=C(C)N1Cc1ccco1	i	3.5e-09	2.5%
COc1ccccc1-c1nn2c(-c3ccco3)nnc2s1	i	4e-09	nt
CCc1c(C(=O)N2CCOCC2)csc1C	i	7e-09	-0.6%
COc1cccc(OC)c1NC(=O)Cc1nn(C)c(=O)c2ccccc12	i	3.6e-08	0.0%
CC(C)(C)NC(=O)C(c1ccco1)N(Cc1ccc(F)cc1)C(=O)c1snc(C(N)=O)c1N (centres undefined)	i	6e-08	1.1%

Remaining list, next part
SMILES	Resorufin autofl	A488 autofl	A647 fluor	AID923	TSHR ag
O=C(Cc1ccccc1)Nc1ccccc1N1CCN(c2ccccc2)CC1	i	i	1.7e-08	4.7%	?
O=C(O)c1cc2c(s1)CCCC2	i	i	5.7e-09	-0.2%	3%
CCOC(=O)CSc1nc2ccccc2n1CC(=O)NC(C)(C)C	i	i	3e-08	-0.4%	13%
COc1cc(C2C(C#N)=C(N)Oc3n[nH]c(C)c32)cc2c1OCO2 (centres undefined)	i	i	2.7e-08	1.8%	7%
CN(C)CCNc1oc(COc2cccc(Cl)c2)nc1C#N	i	i	4.4e-08	7.7%	-11%
N#Cc1ccc(COC(=O)CSc2nnc(C3CCCCC3)n2N)cc1	i	i	4.2e-09	-2.0%	4%
Cc1cn(C2CC3OCC3O2)c(=O)[nH]c1=O (centres undefined)	i	i	3.2e-08	-0.9%	-2%
CSc1nsc(SC)c1NC(=O)Nc1ccccn1	i	i	1.5e-08	1.1%	-1%
N#CCc1ccc(NS(=O)(=O)c2cccs2)cc1	nt	nt	nt	-0.4%	-1%
COCCNc1ncnc2ccc(-c3c(C)noc3C)cc12	i	i	6.7e-09	-1.4%	7%
COc1ncc2nc(-c3ccc(Cl)cc3)c(=O)n(C[C@H]3CCCO3)c2n1	i	i	1e-09	10%	?
CC(C)CCNC(=O)Cn1cc2c(n1)CCCCC2	nt	nt	nt	-1.4%	9%
COC(=O)C1CCN(c2cc(=O)n(-c3ccc(OC)cc3)c(=O)[nH]2)CC1	nt	nt	nt	-1.7%	-5%
COc1ccc(C(=O)OCn2nnc3ccccc3c2=O)cc1OC	i	i	1e-09	0.9%	2%
CCOc1ccc(C2c3c(oc4ccccc4c3=O)C(=O)N2CCCN2CCOCC2)cc1OCC (centres undefined)	nt	nt	nt	-0.5%	2%
COCc1cc(C)nc2sc3c(=O)oc(C)nc3c12	i	i	1.9e-08	1.1%	3%
O=c1[nH]c2sc3c(c2c2nncn12)CCCC3	i	i	1.2e-08	0.6%	nt
CC1CC(C)CN(CCCNC(=O)c2ccc3c(c2)NC(=O)C(N2CCCCC2)S3)C1 (centres undefined)	i	i	1e-09	-0.1%	3%
COC(=O)CN(Cc1ccco1)S(=O)(=O)c1ccccc1	i	i	7.4e-09	0.3%	5%
COc1cc(C(=O)NCc2nnc(SCC(=O)N3CCc4ccccc43)o2)cc(OC)c1OC	i	i	1e-09	-1.7%	7%[11.4 µM]
O=C(NCCCN=C1NS(=O)(=O)c2ccccc21)c1ccc(S(=O)(=O)N2CCCCC2)cc1	i	i	1.9e-08	-1.2%	6%
COc1ccc(-c2nc3oc4cc(OC)ccc4c(=O)c3c(=O)n2Cc2ccco2)cc1	i	i	3.1e-09	0.2%	nt
CCCc1nnc(NC(=O)c2cccc(OC)c2)s1	i	i	2.2e-08	1.8%	-5%
COc1ccc2[nH]cc(CCNc3ccnc(-c4c(C)noc4C)n3)c2c1	i	i	2.9e-08	-1.7%	-7%
CC(=O)n1cc(C2C(=O)CC(C)(C)CC2=O)c2ccccc21	nt	nt	nt	0.1%	-3%
COC(=O)N1[C@H](C)C=C[C@]1(Cc1ccccc1)C(=O)NCc1ccc(N(C)C)cc1	nt	nt	nt	-2.2%	3%
CCOC(=O)c1sc2nc3n(c(=O)c2c1C)CCC(C)CC3 (centres undefined)	i	i	4.2e-08	-0.9%	?
CCOC(=O)C(NC(C)=O)(N1CCOCC1)C(F)(F)F (centres undefined)	i	i	3.2e-08	-1.2%	-1%
CCOC(=O)N1CCC(N2CC34C=CC(O3)C(C(=O)Nc3ccc(OCC)cc3)C4C2=O)CC1 (centres undefined)	nt	nt	nt	4.5%	4%
N=c1sccn1CC(=O)Nc1ccc2c(c1)CCC2	i	i	4.8e-09	1.0%	1%
CCNc1nc(NC(C)C)nc(N(C#N)CCOc2ccc(Cl)cc2Cl)n1	i	i	1e-09	2.5%	?
C1=CC2C3C=CC(C3)C2C1 (centres undefined)	nt	nt	nt	-2.0%	-3%
COc1cccc(-n2c(C)nnc2SCC#N)c1	i	i	1e-09	0.7%	-1%
COc1ccccc1N1CCN(CCN(C(=O)c2ccc(F)cc2)c2ccccn2)CC1	i	i	1e-09	-2.3%	9%
CCCc1cc(C(=O)Cc2ccc(F)cc2)c(O)cc1O	i	i	2.8e-09	nt	nt
Nc1nc2n(n1)C(c1ccccc1Cl)CC(c1ccc(F)cc1)N2 (centres undefined)	nt	nt	nt	12%	5%
CN(c1ccc(C(=O)NCCC2=CCCCC2)cc1)S(C)(=O)=O	i	i	1e-09	0.9%	14%
Cc1cc(=O)n2nc(N3CCCC(C(=O)NCc4ccco4)C3)sc2n1 (centres undefined)	i	i	3.7e-08	1.0%	-2%
O=C(NCc1ccc2c(c1)OCO2)c1nn2cccnc2c1Cl	i	i	9.3e-09	-5.5%	10%
CCOC(=O)c1ccc(NS(=O)(=O)c2ccc(SC)cc2)cc1	i	i	5.2e-09	-1.7%	nt
O=S(=O)(c1cccc(-c2nn3c(-c4ccncc4)nnc3s2)c1)N1CCOCC1	i	i	1e-09	0.1%	-13%
COc1ccc(NC2c3ccccc3C(=O)N2c2cccnc2)cc1Cl (centres undefined)	nt	nt	nt	-1.3%	13%
COc1ccc(-c2ccc(-c3nnn(CC(C)=O)n3)cc2)cc1	i	i	1e-09	1.5%	?
c1cnc(N2CCN(Cc3c[nH]c4ccccc34)CC2)nc1	i	i	1e-09	-2.5%	?
COCC(C)NC(=O)c1ccc(N(C)C)cc1 (centres undefined)	nt	nt	nt	-0.8%	-3%[11.4 µM]
CCOc1ccccc1C(=O)NCCC(=O)O	i	i	3.9e-08	-0.3%	?
O=C(Nc1ccc(NC(=O)C2CC2)nc1)c1cccc(F)c1	i	i	3.5e-08	1.1%	-2%
O=C(COc1ccccc1)N1CCN(c2nnc(-c3ccccc3)c3ccccc23)CC1	i	i	1e-09	-1.0%	2%
CC(C)(Oc1ccc(Cl)cc1)C(=O)O	i	i	1.2e-09	-2.9%	4%
Cc1ccc(S(=O)(=O)CC(C)N2CCOCC2)c(S(=O)(=O)CC(C)N2CCOCC2)c1 (centres undefined)	nt	nt	nt	-0.5%	0%

One compound at a time, as listed above. Order of values: Resorufin autofl, A488 autofl, A647 fluor, AID923, TSHR ag
`COC(=O)CN(Cc1ccco1)S(=O)(=O)c1ccccc1` reads i, i, 7.4e-09, 0.3%, 5%
`CCCc1nnc(NC(=O)c2cccc(OC)c2)s1` reads i, i, 2.2e-08, 1.8%, -5%
`CC1=Nc2ccccc2N=C(NC(=O)CSc2nnnn2-c2ccccc2)C1c1ccccc1` (centres undefined) reads i, i, 5.6e-09, 0.9%, nt
`COC(=O)N1[C@H](C)C=C[C@]1(Cc1ccccc1)C(=O)NCc1ccc(N(C)C)cc1` reads nt, nt, nt, -2.2%, 3%
`c1ccc2[nH]c(CSc3nc4ccccc4o3)nc2c1` reads nt, nt, nt, 1.1%, 10%

Other records follow:
SMILES	Resorufin autofl	A488 autofl	A647 fluor	AID923	TSHR ag
CCN(CC)S(=O)(=O)c1cccc(C(=O)Nc2cccnc2)c1	i	i	1e-09	1.7%	5%
CC(C)(C)C(=O)C1C(=O)c2ccccc2C1=O	nt	nt	nt	-2.4%	-2%
COC(=O)[C@H](C)NC(=O)Nc1cccc(C(F)(F)F)c1	i	i	2.7e-08	1.0%	-4%
O=C(C1CC1)N1CCc2cc(S(=O)(=O)N(CCO)Cc3ccccc3)ccc21	i	i	1.4e-08	1.5%	24%
COc1ccc(N2CC(C(=O)Nc3ccc(F)cc3F)CC2=O)cc1 (centres undefined)	nt	nt	nt	0.9%	0%
O=C(O)c1nnsc1COCc1ccccc1	i	i	2.2e-08	-0.7%[11.5 µM]	1%[11.4 µM]
COc1ccc(-c2ccc(Nc3ccc(S(=O)(=O)N4CCCC4)cc3)nn2)cc1OC	i	i	6.6e-09	-0.1%	-6%
CCOCCCNS(=O)(=O)c1cc(Br)cc2c1N(C(=O)C1CC1)CC2	i	i	2.8e-09	0.1%	nt
COc1ccc(N2C(=O)C3CCCN3C2c2cccc(C)c2)cc1 (centres undefined)	nt	nt	nt	-0.4%	18%
Cc1ccc(-c2nn3nnnc3c3ccccc23)cc1	i	i	1e-09	-1.2%	?
CCOC(=O)c1cc(C)sc1N1C(=O)C2C3C=CC(C3)C2C1=O (centres undefined)	i	i	1e-09	-1.3%	2µM*
CCN(CCCNC(=O)c1c(C)cc(=O)oc1C)c1ccccc1	i	i	1.2e-08	-0.5%	9%
COCCN1Cc2cccc(C(=O)Nc3ccc(C)c(C)c3)c2C1=O	i	i	1.9e-08	-0.2%	8%
COc1ccc(NC(=O)CN2CCN(CC(=O)Nc3cc(OC)cc(OC)c3)CC2)cc1	nt	nt	nt	4.2%	6%
